# Sa ugtP lethal: kills S. aureus RN4220 lacking UgtP | S. aureus RN4220 ugtP deletion, OD600 growth, 16 h; some inactives read as strong as hits | growth inhibition, % (test concentration not listed) | actives 0.54% (n = 330,000);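 active = z-score under -3 and OD600 up to 0.15 on both plates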;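 also: plate controls were untreated wells for no effect and antibiotic for full effect; wells of about 80 µL received 100 nL stock; the first replicate is given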
# BJeLR lethal: BJeLR cell viability loss | BJeLR (HRASV12) viability, CellTiter-Glo ATP luminescence, 48 h; reference of the scale not given here | inhibition, % (concentration not given with the values) | actives 0.17% (n = 300,000);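 active = replicate mean above 50%; inconclusive = above 50% but judged a plate artefact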;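 also: 50 nL library stock added to about 25 µL; numbers are from one replicate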
# Sa RN4220 lethal: S. aureus RN4220 growth inhibition; OD600, 16 h; inhibition, % (concentration not given with the values); actives 0.33% (n = 330,000); AID 1259311;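 active = z-score of -3 or lower and OD600 up to 0.18 on both plates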;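 also: plate controls were untreated cells for no effect and reference antibiotic for full effect; stock transfer was 100 nL into about 80 µL; one replicate is shown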
# Autofluor counter: counter-screen for toxin protease inhibitors: compound fluorescence; compound autofluorescence counterscreen, microsphere flow cytometry; hits give high values; fluorescence intensity (concentration not given with the values); actives 3.1% (n = 360,000); AID 624483;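 active = at least 3 SD above the mean of all compounds, about 16000 in these data; inconclusive = too few beads counted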;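 also: 100 nL of 1 mM stock went into each well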
# Mtb hypoxia inh: reduces hypoxia-regulated biosensor signal in M. tuberculosis. M. tuberculosis hypoxia-regulated fluorescent reporter, fluorescence. fluorescence inhibition, % (no concentration beside the values). actives 0.1% (n = 300,000);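 active = 35 to 45% if threefold the growth effect, above 45% if 1.5-fold the growth effect; inactive = the rest, general growth blockers included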;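 also: wells of about 50 µL received 100 nL stock; 0% = vehicle wells and 100% = reference inhibitor wells; whole bacteria with a GFP reporter of the hypoxia response; strong numbers were not always called active; many hits fall short of the cut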
# PrP UTR inh: suppresses PrP 5' UTR mRNA reporter expression | cell-based PrP 5' UTR mRNA reporter, plate reader | inhibition, % (concentration not given with the values) | actives 0.35% (n = 340,000) | AID 488862;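 active = every replicate at 50% or more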;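 also: 0 = median of the neutral control wells; tested in H4 reporter cells; numbers are from one replicate; inactives centre near -14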
# Mtb hypoxia inh growth: second read-out of Mtb hypoxia inh, no call of its own (marks repeat the call); growth inhibition, %; measured here: M. tuberculosis growth (absorbance);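 0% = vehicle and 100% = reference antibiotic; read after six days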
# * hit, by the source's call; ? = inconclusive; . = not tested or not shown; & = joins results of further samples.
item	canonical_smiles	Sa ugtP lethal	BJeLR lethal	Sa RN4220 lethal	Autofluor counter	Mtb hypoxia inh	Mtb hypoxia inh growth	PrP UTR inh
1	CC(=O)c1ccccc1OCCCOc1cccc2cccnc12	8	-16	13	3002	15	13	-19
2	COc1ccc(CC(=NOC(C)=O)c2ccc(OC)cc2)cc1	0	.	1.6	.	1	19	.
3	COc1ccc(/C=C(/C#N)C(=O)Nc2cccc(C)c2C)cc1C(=O)O	.	8	.	2585	.	.	-22
4	Cc1nnc(NCCN2CCOCC2)[nH]c1=O	-14	-2	-6.4	2472	.	.	18
5	Cc1ccc(C)c(NC(=O)CN(C)C(=O)c2ccccc2Cc2ccccc2)c1	1	5	5.3	5538	2	11	-19
6	Cc1nc2ccccc2c(=O)n1NC(=O)COc1ccccc1	0	-3	2.5	5901	9	1	-6
7	CCOC(=O)C1CCCN(C(=O)Cc2c(C(=O)O)[nH]c3ccccc23)C1 (stereo not given)	-2	-3	-0.6	23230*	2	-2	-26
8	COc1ccccc1-c1c(C(F)(F)F)oc2cc(OC(=O)c3ccc([N+](=O)[O-])cc3)ccc2c1=O	13	-10	8.9	2900	1	7	-15&-19
9	CC(=O)Nc1ccc(NC(=O)c2oc3cc(C)c(C)cc3c2C)cc1	-1	.	2.8	4307	-8	-1	-13
10	Cc1cccc(C(=O)Nc2sc(C(=O)N3CCCC3)c(C)c2C#N)c1	-2	6	3.3	2810	.	.	-11
11	CC(C)C(=O)Nc1ccc2c(c1)nc(CCN1CCN(c3ccccc3)CC1)n2C	1	5	2.4	4538	6	-4	-27
12	Cc1c(NC(=O)c2cnn3cccnc23)c(=O)n(-c2ccccc2)n1C	2	6	4.4	10764	12	4	-18
13	CCCCCCc1ccc(N2C[C@H](Cc3ccccc3)[C@@H](CC(=O)Nc3ccccc3)C2=O)cc1	.	10	.	2768	.	.	-24
14	CCN(CC)C(=O)CSc1nc2ncccc2[nH]1	1	9	5.0	24215*	3	-1	-24
15	C[C@@H]1CC=C[C@@H]2[C@H]1C(=O)N(Cc1ccccc1)[C@H]2c1cccc(C#Cc2ccccc2)c1	18	.	-3.4	3679	-2	10	-6
16	Cc1ccc(S(=O)(=O)N2CCOCC2)cc1C(=O)N1CCN(Cc2ccccc2)CC1	3	.	2.4	6382	-6	9	-18
17	CCC(c1nnc(SCC(=O)Nc2ccc(NC(C)=O)cc2)n1Cc1ccccc1)N(C)C (stereo not given)	8	15	4.2	5161	1	6	-28
18	Cc1ccccc1NC(=S)Nc1ccccc1	12	2	4.8	3996	8	17	-13
19	Clc1ccccc1CN1CCN(N=Cc2ccncc2)CC1	2	.	2.3	.	-9	-1	.
20	CCCCC(=O)Nc1nc(C)c(-c2csc(Nc3ccccc3OC)n2)s1	3	-7	-0.1	3616	-1	4	-26
21	Cc1ccc(C=Nc2sc3c(c2C#N)CCCCC3)o1	-8	.	11	.	2	10	.
22	COc1ccc(CCNS(=O)(=O)c2ccc(OC)cc2)cc1	6	0	3.3	9563	9	9	-3
23	CS(=O)(=O)N1CCCC(C(=O)NCc2ccc(F)cc2Cl)C1 (stereo not given)	-1	0	2.9	8107	3	3	-27
24	Cc1ccc(NC(=O)Nc2ccc3c(c2)N(C)C(=O)CS3)cc1C	-13	6	0.3	5097	.	.	4
25	O=C(O)C1C2C=CC(C2)C1C(=O)NC(c1ccccc1)c1ccccc1 (stereo not given)	-1	-6	4.7	11246	-3	4	-24

# Fetched by structure from above, 6 records:
item	canonical_smiles	Sa ugtP lethal	BJeLR lethal	Sa RN4220 lethal	Autofluor counter	Mtb hypoxia inh	Mtb hypoxia inh growth	PrP UTR inh
20	CCCCC(=O)Nc1nc(C)c(-c2csc(Nc3ccccc3OC)n2)s1	3	-7	-0.1	3616	-1	4	-26
6	Cc1nc2ccccc2c(=O)n1NC(=O)COc1ccccc1	0	-3	2.5	5901	9	1	-6
18	Cc1ccccc1NC(=S)Nc1ccccc1	12	2	4.8	3996	8	17	-13
12	Cc1c(NC(=O)c2cnn3cccnc23)c(=O)n(-c2ccccc2)n1C	2	6	4.4	10764	12	4	-18
15	C[C@@H]1CC=C[C@@H]2[C@H]1C(=O)N(Cc1ccccc1)[C@H]2c1cccc(C#Cc2ccccc2)c1	18	.	-3.4	3679	-2	10	-6
25	O=C(O)C1C2C=CC(C2)C1C(=O)NC(c1ccccc1)c1ccccc1 (stereo not given)	-1	-6	4.7	11246	-3	4	-24

# (list continues)
item	canonical_smiles	Sa ugtP lethal	BJeLR lethal	Sa RN4220 lethal	Autofluor counter	Mtb hypoxia inh	Mtb hypoxia inh growth	PrP UTR inh
26	O=C1CC(c2ccccc2)Sc2nc3ccccc3n21 (stereo not given)	-3	-8	1.9	4314	-7	6	-118
27	CCOC(=O)c1c(C)[nH]c(C(=O)OCC(=O)N2c3ccccc3CC2C)c1C (stereo not given)	-1	-4	0.8	4022	4	7	-30
28	O=C1c2cccc([N+](=O)[O-])c2C(=O)N1C1CCCCC1	3	-3	-0.5	3218	19	7	-25
29	Cc1cccc(C(=O)NNC(=O)CSc2nnc(C3CC3)n2C)c1	0	-6	-0.3	3173	-9	-10	-3
30	O=C(Oc1ccc(-c2cnc3ccccc3n2)cc1)c1ccc(Cl)c([N+](=O)[O-])c1	-2	4	-13	2965	8	1	-120
31	O=C(CN1CCN(S(=O)(=O)c2ccc(Br)cc2)CC1)N/N=C/c1ccco1	.	-12	.	2199	.	.	7
32	CC(CN1CCCC1)OC(=O)c1ccc(F)cc1 (stereo not given)	-6	-2	10	3412	11	-2	-9
33	CN(C)c1ccc(C(=O)C(O)c2ccccc2Cl)cc1 (stereo not given)	3	.	2.6	3001	13	0	30
34	C=CCc1c(OC)ccc2c1c(S(=O)(=O)c1ccc(C)cc1)cn2COC	-2	-1	9.6	3871	4	-11	-20
35	CCCCOc1ccc(/C=c2\sc3ncnn3c2=O)cc1	.	-1	.	3956	.	.	-50
36	COc1cc(Cl)c(S(=O)(=O)NCCCN2CCOCC2)cc1Cl	-9	-7	-12	?	6	6	5
37	Cc1ccc(C(=O)Nc2nnc(NC(=S)Nc3ccccc3)s2)cc1	5	-2	-1.3	4508	13	6	-30
38	CCOC(=O)C1C2COc3ccc(OC)cc3C2N2C(=O)c3ccc(Cl)cc3NC(=O)[C@@]12C (stereo not given in full)	-17	.	0.9	.	2	6	.
39	Cc1cc(CNC(=O)C2(C(F)(F)F)C/C(=C\CCO)CCCO2)nn1C (stereo not given)	.	10	.	2999	.	.	-25
40	C[C@]12CCC(O)CC1=CCC1C2CC[C@]2(C)C(=NNC(N)=S)CCC12 (stereo not given in full)	-7	.	-1.5	.	-4	8	.
41	Cc1ccc(C(=O)Nc2ccccc2C(=O)N2CCCC(C)C2)cc1 (stereo not given)	6	11	0.6	4821	-1	-4	4
42	Clc1cccc(CSc2nccn2-c2ccccc2)c1	16	-4	11	2069	.	.	-33
43	CC1CN(c2ncnc3c2cnn3-c2ccc(Cl)cc2)CC(C)O1 (stereo not given)	10	3	2.3	5197	10	12	-75
44	CCOc1ccc(N(CC(=O)Nc2c(C)cccc2C)S(=O)(=O)c2c(C)[nH]c(=O)[nH]c2=O)cc1	-5	7	-5.4	3553	-2	1	-5
45	CCNC(=O)CSc1nc2sccc2c(=O)n1-c1ccccc1	-2	-2	-1.2	3044	3	-6	-6
46	Cc1c(C)n(Cc2ccc(F)cc2)c2ccc(C(=O)NCCN3CCOCC3)cc12	-7	3	4.7	4900	9	2	14
47	Cc1ccc(Nc2nc(CSc3nnnn3-c3ccccc3)cs2)cc1	-7	-1	-5.4	10602	-5	0	-4
48	O=C(O)C1C2C=CC(C2)C1C(=O)Nc1ccc2c(c1)OCCO2 (stereo not given)	-2	4	4.1	8673	-4	6	2
49	COc1ccc(CNC(=O)[C@H](C)NC(=O)C2CC(=O)N(c3ccc4c(c3)OCO4)C2)cc1 (stereo not given in full)	7	0	-1.1	4611	5	6	5
50	Cc1cccc(C)c1OCC(=O)N=Nc1c(O)[nH]c2ccc(Br)cc12	-36	-4	-1.1	11249	4	9	2

# Additional entries.
item	canonical_smiles	Sa ugtP lethal	BJeLR lethal	Sa RN4220 lethal	Autofluor counter	Mtb hypoxia inh	Mtb hypoxia inh growth	PrP UTR inh
51	COC(=O)c1ccc(NC(=O)C2CCCN2C(=O)Nc2cccc(C(C)=O)c2)cc1 (stereo not given)	12	-12	4.3	4968	8	4	-24
52	Cc1ccccc1-n1ncc2c1CC(C)(C)CC2NC(=O)c1snnc1C (stereo not given)	-1	0	2.4	5065	5	2	-10
53	O=C(Nc1ccccc1F)C1CCN(S(=O)(=O)c2cccc3nonc23)CC1	3	1	6.4	3773	4	16	-19
54	Cc1c(C(=O)N(C)CCc2cnn(C)c2)oc2c(F)cccc12	11	0	6.9	5418	17	8	-18
55	CN1CCN(C(=O)C23CCC(C)(c4nc5ccccc5nc42)C3(C)C)CC1 (stereo not given)	2	-2	4.9	8676	10	4	-20
56	CN(NC(=O)c1ccccc1)c1nc2ccccc2nc1C(F)(F)F	16	34	1.6	2660	.	.	-15
57	CCOc1ccc(S(=O)(=O)N2CCOCC2)cc1NC(=O)CSCC(=O)Nc1cccc(C)c1	.	0	.	5381	.	.	-21
58	O=C(COc1cccc(C(F)(F)F)c1)N1CCN(c2ccc(O)cc2)CC1	-9	1	5.2	4155	-9	-4	-5
59	CC1Cc2ccccc2N1C(=O)COC(=O)c1ccc(Cl)c(S(=O)(=O)N2CCOCC2)c1 (stereo not given)	4	.	3.7	3068	13	24	2
60	Cc1ccc(S(=O)(=O)NCC2(c3ccccc3)CCN(C)CC2)cc1	-3	8	-3.9	2863	-6	-6	-8
61	N#Cc1c(N)nc2c(c1N)CC(COc1ccccc1)O2 (stereo not given)	2	3	2.9	2701	.	.	-43
62	CCOC(=O)N1CCN(c2cc3[nH]c(=S)[nH]c3cc2F)CC1	-9	-3	-6.9	21312*	-3	-2	2
63	O=C(Nc1ccc(NC(=S)NC(=O)c2ccccc2Cl)cc1)c1cccc(Cl)c1	.	11	.	2948	.	.	-17
64	Cc1[nH]c2ccc(-c3nnc(SCC(=O)c4ccccc4F)o3)cc2c1C	-23	6	18	6561	14	7	-7
65	Cc1ccc(Nc2nc(CSc3n[nH]c(N)n3)cs2)cc1	2	1	9.8	5136	4	-5	-58
66	CCN(CC)CCCNC(=O)C(C)n1nc(C)c2sc3ccccc3c2c1=O (stereo not given)	2	3	-0.4	4019	8	3	-11
67	N#Cc1cnc(NOCc2ccc(Cl)cc2)nc1	1	10	-1.0	3224	16	6	-1
68	C/C=C/C=N/Nc1nc(C)cc(=O)[nH]1	.	-10	.	2325	.	.	-15
69	O=C(COc1ccc(Cl)cc1Br)NCC(c1ccco1)N1CCCC1 (stereo not given)	1	.	7.8	4439	10	10	-29
70	COc1ccc(C(=O)Nc2cc(C)cc(C)c2)cc1S(=O)(=O)N1CCOCC1	2	6	-0.5	2408	.	.	-18
71	CCOC(=O)c1c(-c2ccc(OC)cc2)csc1NC(=O)CSc1nnc(C)c(=O)[nH]1	37	.	1.6	4409	2	2	-9
72	O=C(NCCCN1CCOCC1)c1nn2c(C(F)(F)F)cc(-c3ccco3)nc2c1Cl	1	-4	6.1	5996	2	5	6
73	O=C(CSc1nnc2sc3ccccc3n12)NCc1ccco1	1	7	1.2	9900	3	3	-30

# An excerpt from the list above, as a working copy:
item	canonical_smiles	Sa ugtP lethal	BJeLR lethal	Sa RN4220 lethal	Autofluor counter	Mtb hypoxia inh	Mtb hypoxia inh growth	PrP UTR inh
71	CCOC(=O)c1c(-c2ccc(OC)cc2)csc1NC(=O)CSc1nnc(C)c(=O)[nH]1	37	.	1.6	4409	2	2	-9
72	O=C(NCCCN1CCOCC1)c1nn2c(C(F)(F)F)cc(-c3ccco3)nc2c1Cl	1	-4	6.1	5996	2	5	6
73	O=C(CSc1nnc2sc3ccccc3n12)NCc1ccco1	1	7	1.2	9900	3	3	-30

# Bioassay records: PubChem, several laboratories
